Vaccinia inh – blocks a specific stage of Vaccinia orthopoxvirus infection, primary screen, cell-based, single point | activity change (mCherry), % (test concentration not listed) | Vaccinia-infected cells, mCherry/Venus stage reporter fluorescence; active compounds read low; some inactives read as strong as hits | AID 1053133, 2014 | 0.01% of 89,000 active;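 active = mCherry past -33% and 40 or more points under the early reporter, replicates agreeing; inconclusive = past -33% without that gap or agreement; tested in A549 cells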;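 note: scaled between vehicle wells and reference inhibitor wells; 23 nL library stock went into each well; one replicate is shown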
Vaccinia inh Venus – also measured in Vaccinia inh; calls as there; activity change (Venus), %; measured here: Venus reporter, other viral stage;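 negative = less Venus signal; first of two replicates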
* hit, by the source's call; ? = inconclusive; nt = not tested or not shown; & = joins results of further samples. An excerpt, so the mix of outcomes need not match the whole.

SMILES	Vaccinia inh	Vaccinia inh Venus
CN1[C@H](C(=O)NC2CCCCC2)[C@@H](CO)[C@@H]2Cn3c(ccc(-c4cccc(F)c4)c3=O)[C@@H]21	3	0
C[C@H]1CN([C@@H](C)CO)C(=O)Cc2cc(NC(=O)CCC(F)(F)F)ccc2O[C@H]1CN(C)S(=O)(=O)c1ccc(F)cc1	-13	-9
O=C(Cc1ccccn1)NCC[C@@H]1CC[C@H](NS(=O)(=O)c2ccccc2)[C@@H](CO)O1	9	9
COc1ccc([C@H]2C=C(C(=O)O)O[C@@H](OCCCCO)C2)cc1	20	21
O=C(NC1CCCC1)[C@@H]1[C@@H](CO)[C@@H]2Cn3c(cccc3=O)[C@H]1N2CC1CCCC1	14	13
Cc1ccc(S(=O)(=O)Nc2ccc3c(c2)C(=O)N([C@@H](C)CO)C[C@@H](C)[C@H](CN(C)C(=O)C2CCCCC2)OCCCC[C@@H](C)O3)cc1	?	nt
O=C(O)C[C@@H]1C=C[C@@H](NC(=O)c2ccccc2F)[C@H](CO)O1	10	11
C[C@@H]1CN([C@H](C)CO)C(=O)Cc2cc(NC(=O)Nc3cccc4ccccc34)ccc2O[C@H]1CN(C)Cc1ccccc1	-15	-5
CN1C(=O)c2cc(NC(=O)c3ccc(F)c(F)c3)ccc2OC[C@@H]2O[C@H](CC(=O)N[C@@H]3CCN(Cc4ccccc4)C3)CC[C@@H]21	?	nt
C[C@@H]1CN([C@H](C)CO)C(=O)c2cc(NS(=O)(=O)c3ccccc3)ccc2O[C@H]1CN(C)C(=O)Nc1ccc(F)cc1	31	21
Cc1ccc(S(=O)(=O)Nc2ccc3c(c2)CC(=O)N([C@H](C)CO)C[C@H](C)[C@H](CN(C)C(=O)Nc2ccc4c(c2)OCO4)O3)cc1	10	7
COc1cccc(C(=O)N2C[C@H]3[C@@H](c4ccccc42)[C@@H](CO)N3Cc2ccccc2F)c1	0	-3
C[C@H]1CCCCO[C@@H](CN(C)C(=O)CCC(F)(F)F)[C@@H](C)CN([C@@H](C)CO)C(=O)c2cc(NC(=O)NC3CCCCC3)ccc2O1	?	nt
C[C@@H]1CN([C@H](C)CO)C(=O)c2cc(-c3cccnc3)cnc2O[C@H]1CN(C)C(=O)Nc1ccc(C(F)(F)F)cc1	3	-11
COCC(=O)N(C[C@@H]1N[C@@H](CO)[C@H]1c1ccc(C2=CCCCC2)cc1)C(C)C	-9	-9
OC[C@@H]1[C@H](c2ccc(C3=CCCC3)cc2)[C@@H]2CN(CCC(F)(F)F)CCCCN12	-4	-5
CCCNC(=O)N(C)C[C@@H]1Oc2ncc(C#CCC(C)C)cc2C(=O)N([C@H](C)CO)C[C@@H]1C	14	-2
CCCC(=O)Nc1ccc2c(c1)C(=O)N(C)C[C@H](OC)[C@H](C)CN(C(=O)c1cccnc1)[C@@H](C)CO2	15	9
CCC(=O)N(C)C[C@H]1Oc2cc(C#CCC(C)C)ccc2S(=O)(=O)N([C@H](C)CO)C[C@@H]1C	5	-11
C[C@@H]1CCCCO[C@H](CN(C)C(=O)Nc2ccc(C(F)(F)F)cc2)[C@@H](C)CN([C@H](C)CO)C(=O)c2cc(NS(=O)(=O)c3ccc(Cl)cc3)ccc2O1	-30	-22
CN1CCN(C(=O)C[C@@H]2CC[C@@H]3[C@H](COC[C@H](O)CN3C(=O)Cc3ccccc3)O2)CC1	-6	2
C[C@H]1CN([C@@H](C)CO)C(=O)c2cc(-c3ccncc3)cnc2O[C@H]1CN(C)S(=O)(=O)c1ccc(F)cc1	5	7
CCC(=O)N1C[C@H](C)[C@@H](OC)CN(C)C(=O)c2ccc(NC(=O)Nc3ccc(Cl)cc3)cc2OC[C@@H]1C	-19	-15
OC[C@@H]1[C@@H](c2ccccc2)C2(CN(CC3CC3)C2)N1Cc1ccc(F)cc1	-13	-9
C/C=C/c1ccc([C@@H]2[C@H](CO)N(C(=O)CC)C23CN(CCC(F)(F)F)C3)cc1	-4	-1
CC(C)C#Cc1ccc([C@@H]2[C@@H](CO)N3C(=O)CN(C(=O)NC4CCCCC4)C[C@H]23)cc1	-34	-25
CCCC(=O)Nc1ccc2c(c1)C(=O)N(C)C[C@H](OC)[C@@H](C)CN(Cc1ccc(-c3ccccn3)cc1)[C@H](C)CO2	0	11
C[C@@H]1CN([C@H](C)CO)C(=O)c2cc(C#CC3(O)CCCC3)cnc2O[C@H]1CN(C)Cc1ccccc1	-1	-3
O=C(C[C@H]1C=C[C@H](NC(=O)C2CCOCC2)[C@@H](CO)O1)NCc1ccccc1Cl	10	11
CN(C)C(=O)c1ccc(-c2ccc([C@H]3[C@H]4CN(C(=O)C5CCC5)CCCCN4[C@H]3CO)cc2)cc1	36	16
Cc1ccccc1-c1ccc([C@H]2[C@@H](CO)N3CCCCN(S(=O)(=O)c4cn(C)cn4)C[C@H]23)cc1	-16	-18
COCC(=O)Nc1ccc2c(c1)OC[C@@H](C)N(Cc1cccc(F)c1)C[C@@H](C)[C@H](OC)CN(C)C2=O	6	9
C[C@@H](NC(=O)C[C@H]1C=C[C@@H](NC(=O)CN2CCOCC2)[C@@H](CO)O1)c1ccccc1	8	7
O=C(C[C@H]1C[C@H]2c3cc(NC(=O)c4ccc5c(c4)OCO5)ccc3O[C@H]2[C@H](CO)O1)NCc1cccnc1	0	9
CCC(=O)N1CCCCN2[C@H](CO)[C@H](c3ccc(-c4cccnc4)cc3)[C@H]2C1	24	2
C[C@H](CO)N1C[C@H](C)[C@H](CN(C)C)Oc2ccc(NC(=O)Nc3cccc4ccccc34)cc2C1=O	-8	-8
C[C@@H]1CN([C@H](C)CO)C(=O)c2cccc(NC(=O)c3ccc(-c4nccs4)cc3)c2O[C@@H]1CN(C)S(C)(=O)=O	17	5
COc1ccc(S(=O)(=O)Nc2cccc3c2O[C@H](CN(C)Cc2ccc(-c4ccccc4)cc2)[C@H](C)CN([C@H](C)CO)C3=O)cc1	?	nt
CO[C@@H]1CN(C)C(=O)c2cc(NC(=O)C3CC3)ccc2OC[C@H](C)N(C(=O)c2ccncc2)C[C@H]1C	24	9
Cc1noc(C)c1NC(=O)Nc1ccc2c(c1)C(=O)N([C@@H](C)CO)C[C@H](C)[C@@H](CN(C)Cc1ccc(Cl)c(Cl)c1)OCCCC[C@@H](C)O2	?	nt
CC(=O)N1[C@@H](CO)[C@H](c2ccccc2)[C@@H]1CN(C)S(=O)(=O)c1ccccc1	15	10
CN1[C@@H]2c3ccc(/C=C/c4ccccc4)c(=O)n3C[C@H]1[C@H](CO)[C@H]2C(=O)NC1CCCC1	3	9
C[C@H](CO)N1C[C@H](C)[C@H](CN(C)S(=O)(=O)c2cccs2)Oc2ccc(NC(=O)CCC(F)(F)F)cc2CC1=O	17	13
C[C@@H]1CN([C@@H](C)CO)S(=O)(=O)c2ccc(-c3cncnc3)cc2O[C@@H]1CN(C)C(=O)C1CCC1	-4	6
C/C=C/c1ccc(C2[C@@H]3CN(C(=O)C4CCCC4)C[C@H]2N3)cc1 (stereo partly drawn)	-3&-26	0&-22
C[C@@H]1CN([C@H](C)CO)C(=O)c2cccc(NS(=O)(=O)c3cccs3)c2O[C@@H]1CN(C)Cc1ccc(Cl)c(Cl)c1	11	5
COc1ccc(NC(=O)Nc2ccc3c(c2)[C@H]2C[C@@H](CC(=O)N[C@@H](C)c4ccccc4)O[C@@H](CO)[C@H]2O3)cc1	6	4
COc1ccc(NC(=O)Nc2ccc3c(c2)C(=O)N([C@@H](C)CO)C[C@@H](C)[C@@H](CN(C)C)O3)cc1	3	-2
CCC(=O)N(C)C[C@@H]1Oc2cc(C#CC3CC3)ccc2S(=O)(=O)N([C@@H](C)CO)C[C@H]1C	14	6
Cc1noc(C)c1NC(=O)N(C)C[C@H]1OCCCC[C@@H](C)Oc2ccc(NC(=O)c3ccncc3)cc2C(=O)N([C@@H](C)CO)C[C@H]1C	30	19
O=C(CN1CCOCC1)N1C[C@@H]2N[C@H](C1)C2c1ccc(-c2ccccc2)cc1 (stereo partly drawn)	8&-33	1&-18
Cc1noc(C)c1NC(=O)Nc1cccc2c1O[C@H](CN(C)S(=O)(=O)c1cn(C)cn1)[C@@H](C)CN([C@@H](C)CO)C2=O	-1	-2
COc1ccc(CN(C)C[C@H]2Oc3c(NS(=O)(=O)c4cccs4)cccc3C(=O)N([C@H](C)CO)C[C@@H]2C)cc1	15	7
CC(C)NC(=O)N(C)C[C@@H]1Oc2cc(-c3cccnc3)ccc2S(=O)(=O)N([C@H](C)CO)C[C@@H]1C	22	0
CC(C)NC(=O)NCC[C@H]1CC[C@H](NS(=O)(=O)c2ccc(-c3ccccc3)cc2)[C@@H](CO)O1	-24	-9
Cc1cccc(S(=O)(=O)N2C[C@@H]3N[C@H](C2)C3c2ccc(-c3cccnc3)cc2)c1 (stereo partly drawn)	?	nt
CCCNC(=O)N1C[C@@H](O)COC[C@H]2O[C@@H](CC(=O)N3CCC(Cc4ccccc4)CC3)CC[C@@H]21	-25	-13
Cc1noc(C)c1NC(=O)N(C)C[C@H]1OCCCC[C@@H](C)Oc2ccc(NC(=O)Cc3ccccc3)cc2C(=O)N([C@H](C)CO)C[C@@H]1C	19	0
O=C(Nc1ccc(F)cc1)N1C[C@H]2[C@@H](c3ccccc31)[C@@H](CO)N2Cc1ccccc1Cl	-15	-13
COc1cccc(S(=O)(=O)N(C)C[C@@H]2Oc3ncc(-c4cccc(C(=O)N(C)C)c4)cc3C(=O)N([C@H](C)CO)C[C@@H]2C)c1	9	4

5 compounds drawn at random from the list so far, as already listed:
SMILES	Vaccinia inh	Vaccinia inh Venus
O=C(CN1CCOCC1)N1C[C@@H]2N[C@H](C1)C2c1ccc(-c2ccccc2)cc1 (stereo partly drawn)	8&-33	1&-18
Cc1noc(C)c1NC(=O)N(C)C[C@H]1OCCCC[C@@H](C)Oc2ccc(NC(=O)Cc3ccccc3)cc2C(=O)N([C@H](C)CO)C[C@@H]1C	19	0
Cc1noc(C)c1NC(=O)N(C)C[C@H]1OCCCC[C@@H](C)Oc2ccc(NC(=O)c3ccncc3)cc2C(=O)N([C@@H](C)CO)C[C@H]1C	30	19
COc1ccc(CN(C)C[C@H]2Oc3c(NS(=O)(=O)c4cccs4)cccc3C(=O)N([C@H](C)CO)C[C@@H]2C)cc1	15	7
CC(C)NC(=O)NCC[C@H]1CC[C@H](NS(=O)(=O)c2ccc(-c3ccccc3)cc2)[C@@H](CO)O1	-24	-9

Reprinted from the entries so far for reference:
SMILES	Vaccinia inh	Vaccinia inh Venus
Cc1noc(C)c1NC(=O)N(C)C[C@H]1OCCCC[C@@H](C)Oc2ccc(NC(=O)Cc3ccccc3)cc2C(=O)N([C@H](C)CO)C[C@@H]1C	19	0
O=C(Nc1ccc(F)cc1)N1C[C@H]2[C@@H](c3ccccc31)[C@@H](CO)N2Cc1ccccc1Cl	-15	-13
COc1cccc(S(=O)(=O)N(C)C[C@@H]2Oc3ncc(-c4cccc(C(=O)N(C)C)c4)cc3C(=O)N([C@H](C)CO)C[C@@H]2C)c1	9	4

Next records follow:
SMILES	Vaccinia inh	Vaccinia inh Venus
O=C(N[C@H]1CC[C@@H](CCNS(=O)(=O)c2ccccc2)O[C@@H]1CO)c1cnccn1	6	3
CN(C)CC(=O)N1[C@H](CO)[C@H](c2ccc(-c3cccc(C(=O)N(C)C)c3)cc2)[C@@H]1C#N	2	-4
COc1ccc2c3c(n(C)c2c1)[C@@H](CO)N(Cc1ccc(F)cc1)CC31CCN(CC2CC2)CC1	-29	-10
COc1ccc(S(=O)(=O)Nc2ccc3c(c2)C(=O)N([C@@H](C)CO)C[C@@H](C)[C@H](CN(C)C(=O)Nc2ccc(C(F)(F)F)cc2)OCCCC[C@@H](C)O3)cc1	-2	-5
CN(C)Cc1cn(CC[C@@H]2CC[C@@H](NS(=O)(=O)c3ccc(-c4ccccc4)cc3)[C@H](CO)O2)nn1	?	nt
C/C=C/c1ccc([C@H]2[C@@H](CNC(=O)CC)N(C(=O)COC)[C@H]2CO)cc1	13	10
O=C(c1ccccc1)N1CC2(C1)[C@@H](c1ccccc1)[C@@H](CO)N2C(=O)CC1CC1	3	2
Cc1ccc(S(=O)(=O)N(C)C[C@@H]2OCCCC[C@H](C)Oc3ccc(NS(=O)(=O)c4ccc(F)cc4)cc3C(=O)N([C@@H](C)CO)C[C@@H]2C)cc1	?	nt
CCC(=O)N1[C@@H]2Cn3c(ccc(-c4cccc(F)c4)c3=O)[C@H]1[C@@H](C(=O)OC)[C@@H]2CO	9	4
CO[C@@H]1CN(C)C(=O)c2cc(NS(=O)(=O)c3ccc(C)cc3)ccc2OC[C@H](C)N(C(=O)NC(C)C)C[C@@H]1C	7	-1
COc1ccc(NC(=O)Nc2ccc3c(c2)C(=O)N([C@H](C)CO)C[C@H](C)[C@H](CN(C)C(=O)Nc2ccc(OC)cc2)O3)cc1	5	10
CCCNC(=O)C[C@H]1C[C@H]2c3cc(NS(C)(=O)=O)ccc3O[C@H]2[C@H](CO)O1	16	10
O=C(C[C@@H]1CC[C@@H]2[C@H](COC[C@H](O)CN2CC2CC2)O1)NCc1ccc(Cl)cc1	-13	-6
C[C@H](CO)N1C[C@H](C)[C@@H](CN(C)C(=O)Nc2ccc3c(c2)OCO3)Oc2cc(C#Cc3cccnc3)ccc2S1(=O)=O	-1	-8
COc1ccccc1NC(=O)N1CC[C@H]2[C@@H]1c1cc(C#Cc3ccc(F)cc3)ccc1N(C)[C@H]2CO	16	7
C[C@H]1CCCCO[C@@H](CN(C)C(=O)C2CCCCC2)[C@@H](C)CN([C@@H](C)CO)C(=O)c2cc(NS(=O)(=O)c3ccccc3)ccc2O1	?	nt
CN1c2ccc(-c3ccc(F)cc3)cc2[C@@H]2[C@@H](CCN2S(=O)(=O)c2ccc(F)cc2)[C@@H]1CO	-30	-26
COc1cccc(S(=O)(=O)Nc2ccc3c(c2)[C@@H]2C[C@H](CC(=O)O)O[C@@H](CO)[C@@H]2O3)c1	16	8

Single records, as listed above. Values in the order: Vaccinia inh, Vaccinia inh Venus
COc1ccc2c3c(n(C)c2c1)[C@@H](CO)N(Cc1ccc(F)cc1)CC31CCN(CC2CC2)CC1 is listed as -29, -10
COc1ccc(NC(=O)Nc2ccc3c(c2)C(=O)N([C@H](C)CO)C[C@H](C)[C@H](CN(C)C(=O)Nc2ccc(OC)cc2)O3)cc1 is listed as 5, 10

High-throughput results from PubChem.
